# High-throughput results from PubChem.
# TRPML1 inh – qHTS for Inhibitors of the Human Mucolipin Transient Receptor Potential 1 (TRPML1); Mucolipin-1 (Homo sapiens), Q9GZU1; TRPML1-inducible cells, Ca2+ dye fluorescence, FDSS; stronger effect = lower value; inhibition of EC80 agonist-evoked calcium signal; activity change, negative = inhibition, % (no concentration beside the values); actives 0.02% (n = 390,000); AID 624415, 2012; in the data active means activity change below about -50%; inconclusive means about -30% to -50%; inactive means above about -30%;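 also: stimulus is agonist 54-4 at its EC80 concentration; % is scaled to controls: 0 for no effect and ±100 for the full control effect; compound concentration not given in the record; the text of the record puts the active cut at -80%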
# Target sequence (Q9GZU1 whole entry, looked up): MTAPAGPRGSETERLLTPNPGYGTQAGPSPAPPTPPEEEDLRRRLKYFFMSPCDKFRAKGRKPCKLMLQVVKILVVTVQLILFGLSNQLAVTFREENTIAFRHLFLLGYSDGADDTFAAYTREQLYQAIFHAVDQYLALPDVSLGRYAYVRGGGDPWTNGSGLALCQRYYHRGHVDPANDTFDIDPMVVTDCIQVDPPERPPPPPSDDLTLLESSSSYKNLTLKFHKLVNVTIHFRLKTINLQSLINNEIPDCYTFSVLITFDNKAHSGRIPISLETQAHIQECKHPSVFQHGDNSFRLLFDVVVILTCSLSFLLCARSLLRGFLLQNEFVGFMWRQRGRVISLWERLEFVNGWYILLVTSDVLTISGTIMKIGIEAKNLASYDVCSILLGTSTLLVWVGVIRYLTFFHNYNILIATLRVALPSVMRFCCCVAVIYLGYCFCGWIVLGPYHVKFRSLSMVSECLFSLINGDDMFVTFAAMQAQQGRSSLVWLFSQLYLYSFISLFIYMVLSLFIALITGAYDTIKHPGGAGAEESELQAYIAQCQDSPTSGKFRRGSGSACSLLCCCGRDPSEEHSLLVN
#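 Calcium fluorescence in TRPML1-DL cells induced overnight with Tet: a 110 s read after compound pin addition, then a 110 s antagonist read after challenge with 54-4 at 4 uM final (EC80).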
# ClpP mod – qHTS Assay for Activators of ClpP. purified B. subtilis ClpP, FRET peptide cleavage, 20 min. Potency, µM (highest dose often 57.5 µM), for inactives: at the highest dose activity change, negative = active. actives 1.9% (n = 340,000). AID 651965, 2013; active = well fitted falling curve with a large enough effect; inconclusive = small, poorly fitted or top-dose-only effect; inactive = no such curve, though single readings can be large or run the other way; also: potency is read from the fitted curve at half-maximal effect; the source files actives as falling curves though it sought activators and does not explain the sign; nearly all actives have a fitted effect of over 65% in size; many hits overshoot -100%
# Target sequence (P80244 whole entry, looked up): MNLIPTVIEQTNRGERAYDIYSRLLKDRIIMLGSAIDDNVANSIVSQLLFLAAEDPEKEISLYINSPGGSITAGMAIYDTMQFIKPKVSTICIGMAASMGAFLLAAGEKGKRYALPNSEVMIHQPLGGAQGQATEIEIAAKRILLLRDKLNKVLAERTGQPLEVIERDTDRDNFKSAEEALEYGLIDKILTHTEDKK
#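 Purified B. subtilis ClpP, 10 microg/mL final in Tris/HCl pH8 with KCl, BSA, glycerol and Tween-20, cleaved an Abz/nitrotyrosine-quenched decapeptide. Fluorescence (ex 320, em 430) was read at 0 and 20 min at room temperature. Delta was normalized to 5.8 microM ADEP and DMSO/no-enzyme controls.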
# gsp antagonist – qHTS for Antagonists of gsp, the Etiologic Mutation Responsible for Fibrous Dysplasia/McCune-Albright Syndrome: qHTS; gsp-mutant cells, cAMP HTRF, 30 min; control for the full effect not named in the record; Potency, µM (titrated, usually from 76.9 µM), for inactives: at the top dose activity change, negative = inhibition, usual class: inhibitors; actives 0.4% (n = 340,000); AID 624288, 2012; active = falling curve of any shape with a large fitted effect; inconclusive = falling curve, mostly with a smaller effect; inactive = flat or rising curve; cell line not stated here;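 also: intracellular cAMP measured with PDE inhibitor Ro 20-1724 present during compound exposure; potency is read from the fitted curve at half-maximal effect; % is scaled to controls: 0 for no effect and ±100 for the full control effect; nearly all actives have a fitted effect of over 65% in size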
#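 Measurement of cellular cAMP by homogeneous time-resolved fluorescence following a 30 min compound exposure at 37C. The PDE inhibitor […] was present throughout; the assay buffer was DPBS with 0.05% BSA and 0.005% Tween 20.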
# gsp agonist – qHTS for Agonist of gsp, the Etiologic Mutation Responsible for Fibrous Dysplasia/McCune-Albright Syndrome: qHTS | gsp mutant cells, cAMP HTRF, 30 min; control for the full effect not named in the record | Potency, µM (series often up to 76.9 µM), for inactives: top-dose activation (cAMP increase), actives largely listed as activators | actives 0.13% (n = 340,000) | AID 624287, 2012; active = well fitted activation curve with a large enough effect; inconclusive = small, poorly fitted or top-dose-only effect, or another doubt; inactive = no such curve, though single readings can be large or run the other way; cell line not stated here;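 also: phosphodiesterase inhibitor Ro 20-1724 added with compounds to block cAMP breakdown; potency is read from the fitted curve at half-maximal effect; nearly all actives have a fitted effect of over 60% in size; about a fifth of the inactives were tested at one dose only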
#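 Cells in DMEM/10% FBS with G418 were pretreated with compounds in DMSO plus […] (300 uM stock) for 30 min at 37C. cAMP was measured by HTRF (cAMP-d2 plus anti-cAMP antibody-K) after 30 min at room temperature.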
# Menin MLL FP FL – qHTS Assay for Inhibitors Targeting the Menin-MLL Interaction in MLL Related Leukemias: Competition With Fluorescein Labeled MLL-derived Peptide. Fluorescence polarization, fluorescein-MLL peptide displacement from menin. FP activity change, % at 61.4 µM. 290,000 tested, under 10 active; inconclusive = falling polarisation curve, or a change in total fluorescence; inactive = total fluorescence flat and polarisation flat or rising; no compound was filed as active; the % refers to the polarisation; negative = inhibition;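 also: % of control where 0% means no effect; inhibitors lower the polarisation; unlabelled MLL peptide was the positive control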
# TRPML1 agonist – qHTS for Agonists of the Human Mucolipin Transient Receptor Potential 1 (TRPML1); activation, % (no concentration beside the values); TRPML1-expressing cells, Ca2+ dye fluorescence, FDSS; host cell line not named in the record; reference of the full effect not given here; Mucolipin-1 (Homo sapiens), Q9GZU1; actives 0.12% (n = 410,000); in the data active = activation above about 50%; inconclusive = about 30% to 50%; inactive = below about 30%; also: 0% is about no effect; the text of the record puts the active cut at 80%
#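 Cells: TRPML1-DL, 1X Tet inducer, ~16 h at 37 degrees C/5% CO2. Dye: ABD Ca8 no-wash + quencher, 45-90 min RT. Read: 10 s baseline, compound add, 110 s agonist phase; 54-4 EC80 (4uM final), 110 s antagonist phase.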
# * marks the source's active call; other numbers are inactive results; ? = inconclusive; · = no result given; & = joins results of further samples; [ ] = dose if it differs, or a comment.
# Codes – A = TRPML1 inh; B = ClpP mod; C = gsp antagonist; D = gsp agonist; E = Menin MLL FP FL; F = TRPML1 agonist
> C=CC(=O)NC1CC2CCC1(C)C2(C)C (configuration not stated)
  A: 24.9	B: -2.9%	C: -0.2%	D: -3.0%[15.4 µM]	E: -0.1	F: 0.0
> O=C(CCCn1nnnc1CN1CCOCC1)N1CCC(c2ccccc2F)C1 (configuration not stated)
  A: 5.1	B: -0.8%	C: -2.1%	D: -71.3%[inhibitor]	E: 3.5	F: 0.4
> CCS(=O)(=O)c1ccccc1C(=O)NC1CCCc2ccccc21 (configuration not stated)
  A: -6.1	B: ·	C: 7.0%	D: -31.7%[inhibitor]	E: -1.5	F: 0.3
> Cc1ccc(N2CCN(C(=O)c3cnc(N4CCCCC4)c4ccccc34)CC2)c(C)c1
  A: 18.3	B: 35.5µM*	C: ·	D: ·	E: ·	F: 0.1
> COC(=O)c1cc2ccsc2n1Cc1ccccc1F
  A: 13.6	B: -7.7%	C: -11.8%	D: -3.1%	E: 4.2	F: 1.4
> O=C(Cn1nc(Cc2cccnc2)c2ccccc2c1=O)N1CCN(C(=O)c2ccco2)CC1
  A: 1.7	B: -1.2%	C: -17.6%	D: 0.4%	E: -8.1	F: 0.0
> Cc1c(C(=O)N(C)C)sc2c1c(=O)n(-c1ccccc1C(F)(F)F)c(=O)n2Cc1cccc(F)c1
  A: 5.3	B: -1.7%	C: ·	D: ·	E: ·	F: -0.2
> COc1ccc(CC(=O)c2c(O)cc(O)cc2O)cc1OC
  A: 50.6	B: 1.2%	C: ?	D: 3.8%	E: 4.1	F: 0.1
> COc1ccc(-c2nc(Cn3c(SCc4ccccc4F)nc4ccncc43)c(C)o2)cc1
  A: 8.6	B: ?	C: -5.1%	D: 10.1%	E: 1.6	F: -0.5
> Cc1ccc(/C=C2/NC(=O)[C@H](C)NC2=O)cc1
  A: -19.4	B: -1.2%	C: 4.0%	D: -3.6%	E: 2.6	F: 1.4
> c1ccc(-c2ccccc2OCCOCCN2CCCCC2)cc1
  A: 8.1	B: -2.9%	C: 17.3%	D: -65.0%[inhibitor]	E: 8.3	F: 0.5
> CCOC(=O)c1ccc(NC(=O)CC2C(=O)N(c3ccccc3)C(=O)N2C2CCCCC2)cc1 (configuration not stated)
  A: -11.3	B: 0.8%	C: ·	D: ·	E: ·	F: -0.2
> CC1=CC(C)(C)n2c(O)c(N=N)c3c(C)ccc1c32
  A: 3.9	B: ·	C: -1.8%	D: -21.6%[15.4 µM]	E: -0.5	F: 1.0
> Cc1ccccc1-c1noc(-c2cccs2)n1
  A: -0.9	B: 0.3%	C: -6.3%	D: 26.7%	E: 1.5	F: -1.6
> NC(=O)c1sc2cc(C(F)(F)F)cnc2c1-c1ccccc1
  A: -0.4	B: ·	C: 2.4%	D: 8.0%[15.4 µM]	E: 0.7	F: 2.2
> Cc1[nH]c2ccccc2c1SCc1nnc(SCc2ccc(Cl)cc2)n1C
  A: -12.4	B: ·	C: ?	D: 0.2%	E: 4.3	F: 2.6
> CCCSc1cc(N2CCN(C)CC2)nc(-c2ccc(OC)cc2)n1
  A: 23.9	B: -2.0%	C: 4.6%	D: -3.5%	E: -2.5	F: 2.2
> CC(OC(=O)c1ccc(NC(=O)CC#N)cc1)C(=O)NCCC1=CCCCC1 (configuration not stated)
  A: 1.2	B: 1.1%	C: -12.1%	D: -15.1%	E: ·	F: -0.4
> C(#CCN1CCC(Cc2ccccc2)CC1)COCCOCc1ccccc1
  A: 25.9	B: 1.4%	C: -6.0%	D: -20.5%	E: 0.1	F: 2.0
> Cc1ccsc1/C=C(\CC(=O)O)c1nc2ccccc2o1
  A: 22.5	B: -8.4%	C: -19.1%	D: -30.0%	E: ·	F: -0.8
> O=C(CN(Cc1ccccc1Cl)C(=O)CN1C(=O)CSc2ccccc21)NC1CC1
  A: -5.0	B: 0.6%	C: -5.2%	D: 17.3%[15.4 µM]	E: 2.5	F: 1.3
> CC(=O)Nc1ccc(S(=O)(=O)N2CCN=C2SCc2ccc([N+](=O)[O-])cc2)cc1
  A: 23.1	B: -3.2%	C: -16.0%	D: -2.5%	E: 0.9	F: 3.3
> Cn1c(=O)c(=O)n(C)c2cc(S(=O)(=O)CCC(=O)Nc3cccc(C(F)(F)F)c3)ccc21
  A: -8.8&10.9	B: -3.4%&-4.8%	C: 7.3%	D: ?	E: -4.9	F: -1.0&0.2
> Cc1cccc(-c2nnc(-c3ccccc3)o2)c1
  A: 48.6	B: -14.7%	C: -6.5%	D: -5.7%	E: 0.0	F: 2.1
> CCC(=O)N1c2ccc(S(=O)(=O)NC3CCCCC3)cc2CC1C (configuration not stated)
  A: -10.6	B: -1.4%	C: 1.4%	D: 0.7%	E: 2.5	F: -0.8
> Cn1cccc1C(=O)OCC(=O)c1ccc(Br)s1
  A: -20.5	B: -3.4%	C: 6.8%	D: 25.3%	E: ·	F: 0.9
> CCC(C)(C)NC(=O)C(c1ccncc1)N(C(=O)c1sc(C)nc1C)c1ccc(C)cc1 (configuration not stated)
  A: 6.4	B: 0.9%	C: 0.4%	D: -88.5%[inhibitor]	E: -0.4	F: 1.9
> C=CCNC(=O)c1ccccc1NC(=O)COc1ccccc1
  A: -3.1	B: -3.4%	C: -5.9%	D: -1.1%	E: -2.9	F: 0.4
> Oc1ccc(/C=N/NC(=S)Nc2cccnc2)cc1
  A: 15.6	B: -7.0%	C: 4.1%	D: -1.5%	E: -2.5	F: 0.5
> Cc1ccc(N(C)S(=O)(=O)c2cc3c(cc2C)NC(=O)CO3)cc1
  A: 0.9	B: 1.8%	C: -16.4%	D: -99.5%	E: -0.4	F: -0.8
> COc1ccccc1CCNS(=O)(=O)CCNC(=O)c1ccccc1
  A: 19.3	B: -15.2%	C: -1.6%	D: -13.1%	E: ·	F: -0.7
> O=S(=O)(Nc1cc(Cl)cc(Cl)c1)N1CCOCC1
  A: 2.4	B: -0.4%	C: 1.4%	D: ?	E: -3.9	F: -0.5
> CN1CCCCC1(C)C(=O)NCc1ccc(F)cc1 (configuration not stated)
  A: 85.1	B: 0.5%	C: ·	D: ·	E: ·	F: 2.8
> CC(C)CCNC(=O)c1cc2c(=O)[nH]c3ccccc3c2s1
  A: -21.5	B: 4.0%	C: -13.2%	D: 20.7%	E: -2.7	F: 1.3
> O=C(CCc1ccccc1)NCCSCc1c(F)cccc1Cl
  A: -10.1	B: -3.0%	C: 1.7%	D: 7.7%	E: 3.0	F: -0.6
> O=C(O)c1cccc(N=NN2CCCCCC2)c1
  A: -15.7	B: -3.4%	C: -3.4%	D: -2.2%[15.4 µM]	E: 0.0	F: -0.1
> CCC(=O)Nc1cc(SCCO)cc([N+](=O)[O-])c1
  A: 0.5	B: -2.9%	C: -0.7%	D: 2.3%	E: -0.8	F: -0.3
> CC(CN1CCOCC1)OC(=O)c1cccs1 (configuration not stated)
  A: -0.2	B: -8.6%	C: -5.7%	D: 6.0%	E: 4.3	F: -1.0
> Cc1c(Cl)cccc1Nc1nc(NCCO)c2ccccc2n1
  A: -6.1	B: ·	C: 5.2%	D: -27.9%	E: -1.2	F: 0.3
> Cc1cc(C)c(CN2CCN(Cc3ccc(C)o3)C(CCO)C2)c(-n2cccn2)c1 (configuration not stated)
  A: -2.3	B: 25.1µM*	C: 1.4%	D: 12.5%[15.4 µM]	E: 1.2	F: -0.9
> CCn1c(=O)c(=O)n(CC)c2cc(N3CCCCC3)c(NC(=O)c3ccc(Cl)cc3)cc21
  A: 35.8	B: 0.3%	C: ·	D: ·	E: ·	F: 1.5
> CN(C)CCCNC(=O)c1cc(C(=O)c2cccc(Cl)c2Cl)c[nH]1
  A: 14.5	B: ·	C: 7.8%	D: 0.1%	E: 4.7	F: 1.0
> COCCNC(=O)C(=O)N/N=C(\C)CC(=O)Nc1ccc2c(c1)OCO2
  A: 11.7	B: ·	C: 6.5%	D: -5.5%	E: -3.6	F: -0.3
> COc1ccc(NC(=O)CN2C(=O)NC(c3ccccc3)(c3ccccc3)C2=O)cc1OC
  A: 14.0	B: ·	C: -22.3%	D: -23.5%	E: 1.2	F: 0.8
> CC(C)CCNC(=O)Cc1ccc(Nc2nc(=S)[nH]c3ccccc23)cc1
  A: 2.5	B: ·	C: -21.7%	D: -0.3%[15.4 µM]	E: 2.8	F: 0.0
> COc1ccc(C(=O)N/N=C(\C)CC(=O)NC2CCCCC2)c(OC)c1
  A: -26.6	B: -2.8%	C: 2.4%	D: 18.8%	E: ·	F: 1.4
> CCC(=O)N1CCN(c2nc(CC)nc3sc4c(c23)CCCC4)CC1
  A: -10.0	B: -0.7%	C: 20µM*	D: 25.0%[15.4 µM]	E: 0.7	F: 0.3
> COCCCNC(=O)CCC(=O)NNc1nc2ccccc2c2nc(C)nn12
  A: 5.8&9.0	B: -0.9%&0.7%	C: 17.3%	D: 20.1%	E: -0.4	F: 0.1&-0.3
> CC(=O)c1sc(NC(=O)c2cccc(N3C(=O)CCC3=O)c2)nc1-c1ccccc1
  A: -4.7	B: -1.0%	C: 8.9%	D: ?	E: ·	F: -0.3
> NS(=O)(=O)c1cccnc1Nc1cccc(C(F)(F)F)c1
  A: 16.3	B: -22.2%	C: -7.4%	D: ?	E: -1.1	F: 0.3
> CC1=C(c2ccc(Cl)cc2)S(=O)(=O)N=C1N1CCN(c2cccc(C)c2C)CC1
  A: -2.4	B: -0.6%	C: ·	D: ·	E: ·	F: 0.4
> O=C(CSc1nnc(-c2cccnc2)n1-c1ccccc1)Nc1ccccn1
  A: 9.4	B: -1.3%	C: -19.3%	D: 33.5%	E: 5.4	F: -0.8

# Looked up by compound from the entries so far, 3 records:
# Codes – A = TRPML1 inh; B = ClpP mod; C = gsp antagonist; D = gsp agonist; E = Menin MLL FP FL; F = TRPML1 agonist
> COCCCNC(=O)CCC(=O)NNc1nc2ccccc2c2nc(C)nn12
  A: 5.8&9.0	B: -0.9%&0.7%	C: 17.3%	D: 20.1%	E: -0.4	F: 0.1&-0.3
> CC(=O)c1sc(NC(=O)c2cccc(N3C(=O)CCC3=O)c2)nc1-c1ccccc1
  A: -4.7	B: -1.0%	C: 8.9%	D: ?	E: ·	F: -0.3
> CN(C)CCCNC(=O)c1cc(C(=O)c2cccc(Cl)c2Cl)c[nH]1
  A: 14.5	B: ·	C: 7.8%	D: 0.1%	E: 4.7	F: 1.0
